Screens as filed in PubChem BioAssay.
YopH inh = blocks Yersinia enterocolitica YopH tyrosine phosphatase. fluorescence Ex485/Em525. inhibition, %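 (about 10 µM by stock and volumes)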. hit rate 0.16% among 140,000;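 active = inhibition of 50% or more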;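 note: controls were vehicle for no effect and minimum signal wells for full effect; inactives centre near -20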
Mtb betalactam = beta-lactam sensitization of Mtb H37Rv | M. tuberculosis H37Rv growth with meropenem, percent inhibition; hits of this screen are not shown here | inhibition, % at 25 µM | hit rate 0.27% among 330,000 | AID 434955;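 active = about 74% or more and at least 40 points above the plate without the antibiotic, then above 30% in a dose series; inconclusive = first-round hits that could not be retested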;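 note: growth measured after seven days incubation then overnight dye step; 0% = bacteria only wells and 100% = bacteria with antibiotic; twin plates without the antibiotic show which effects depend on it; some results filed as inactive read as strong as hits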
Arbovirus inh = antivirals against arbovirus infection. AID 1251. arbovirus infection cell-based antiviral screen. hit rate 0.37% among 200,000. inhibition, % at 10 µM;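 active = inhibition from about 30%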;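 note: bluetongue infection of BSR cells; cell survival read as ATP light after 72 h; 0% = infected wells without compound and 100% = uninfected wells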
Mtb growth = M. tuberculosis H37Rv growth inhibitors, H37Rv strain (AID 1626). M. tuberculosis H37Rv growth inhibition; higher % means a stronger effect. inhibition, % at 10 µM; hits with a dose series show IC50 in µM. hit rate 0.95% among 220,000;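 active = confirmed in a dose series; inconclusive = inhibition above 80% but not taken into the dose series; inactive = below 80% or under 30% at every dose of the series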;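 note: bacteria incubated seven days before Alamar blue readout; 0% = bacteria only wells and 100% = bacteria with antibiotic wells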
RecA intein inh = inhibitors of M. tuberculosis RecA intein splicing; cell-free RecA intein splicing, fluorescence; inhibition, %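 (about 9 µM by stock and volumes)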; hit rate 0.75% among 290,000; in the data active = inhibition above about 30%; inconclusive = no clear call, values can overlap the other calls;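 note: 0% = vehicle wells and 100% = reference inhibitor control wells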
Target sequence (P9WHJ3 whole entry, looked up): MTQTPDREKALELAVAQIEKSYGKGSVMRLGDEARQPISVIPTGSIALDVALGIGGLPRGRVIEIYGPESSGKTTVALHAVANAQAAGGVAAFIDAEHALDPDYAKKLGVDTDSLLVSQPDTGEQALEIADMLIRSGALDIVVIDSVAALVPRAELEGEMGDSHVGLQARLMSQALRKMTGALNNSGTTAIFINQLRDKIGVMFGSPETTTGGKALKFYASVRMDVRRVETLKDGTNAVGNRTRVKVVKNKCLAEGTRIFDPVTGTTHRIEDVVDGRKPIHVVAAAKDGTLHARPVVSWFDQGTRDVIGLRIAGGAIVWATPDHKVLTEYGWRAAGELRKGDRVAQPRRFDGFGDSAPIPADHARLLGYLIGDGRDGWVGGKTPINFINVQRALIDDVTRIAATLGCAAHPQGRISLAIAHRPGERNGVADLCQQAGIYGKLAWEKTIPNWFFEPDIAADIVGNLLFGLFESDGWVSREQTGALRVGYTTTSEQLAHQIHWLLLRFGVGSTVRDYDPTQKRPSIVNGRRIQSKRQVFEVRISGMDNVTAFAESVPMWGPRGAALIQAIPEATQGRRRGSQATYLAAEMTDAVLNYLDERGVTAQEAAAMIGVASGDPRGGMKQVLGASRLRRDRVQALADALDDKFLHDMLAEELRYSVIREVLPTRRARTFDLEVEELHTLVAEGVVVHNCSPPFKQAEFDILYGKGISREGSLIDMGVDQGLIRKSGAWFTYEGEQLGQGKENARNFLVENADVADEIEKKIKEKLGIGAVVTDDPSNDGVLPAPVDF
Arbovirus inh repeat = also measured in Arbovirus inh; calls as there; inhibition, %; measured here: 10K subset replicate screen; many hits read low in the repeat;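 first of two repeat runs on a subset; 0% = infected and 100% = uninfected wells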
* hit, by the source's call; ? = inconclusive; . = no result given.

SMILES	YopH inh	Mtb betalactam	Arbovirus inh	Mtb growth	RecA intein inh	others
O=C(NCc1ccco1)c1cccc(C(F)(F)F)c1	.	4	-4	3%	4.3
Cc1cc(C(F)(F)F)nc(SCC(=O)NC2=NC(=O)C(C)S2)n1 (configuration not stated)	-12	0	1	-9%	0.9
O=C(CSc1ccccc1C(=O)O)c1ccc(Cl)cc1	.	94	.	.	-1.5
Cc1nc2ccccc2c2c1CC(C)S2 (configuration not stated)	.	-2	.	.	0.6
COc1cc(CNCc2ccccn2)ccc1OCC(=O)NC(C)(C)C	-17	2	10	5%	-1.6
CCC(C)NC(=O)c1ccc(C)c(NC(=O)C2=C(C)OCCS2)c1 (configuration not stated)	.	0	.	.	-0.5
NS(=O)(=O)c1ccc(CCNC(=O)Nc2ccc(Cl)c(Cl)c2)cc1	-34	43	-23	3%	0.5
Cc1ccccc1OCCCSc1nc2ccccc2[nH]1	1	1	-25	4%	9.0
Cc1nn(Cc2c(F)cccc2Cl)c(C)c1[N+](=O)[O-]	.	-1	3	-6%	9.9
CCOC(=O)C1=C(C)OC(N)=C(C#N)C1c1cc(F)ccc1F (configuration not stated)	-11	5	-1	5%	1.0
COc1ccc(Oc2nc(-c3ccncc3)nc3ccccc23)cc1	.	-2	.	3%	2.3
CCCCn1c(/C=N/Nc2nc3ccccc3[nH]2)nc2ccccc21	-26	98	-20	?	-6.8
CCN(CC)c1ccc(C2Nc3cccc4cccc(c34)N2)cc1	.	12	.	.	-0.1
Nc1c([N+](=O)[O-])cc(F)c(N2CCNCC2)c1Br	-19	-10	-4	-4%	-0.7
COc1ccc(CN2CCN(c3ccccn3)CC2)cc1OCc1ccccc1	-21	.	6	4%	1.1
O=[N+]([O-])c1ccccc1-c1ccc(C(=S)N2CCCCC2)o1	.	58	.	1%	13
Cc1nc2ccccc2c(=O)n1NC(=O)c1ccco1	-29	-13	8	4%	.
CC1CCN(C(=O)CN2C(=O)c3cccc4cccc(c34)C2=O)CC1	.	-7	17	6%	-1.5
Cc1ccc(NC(=O)CSCC(=O)NCc2cccc(C(F)(F)F)c2)cc1	.	-1	.	.	1.5
CC(C)c1onc(C(=O)N2C(C)CCCC2C)c1[N+](=O)[O-] (configuration not stated)	-22	-2	1	-3%	-3.5
COc1ccc(CN2CCN(S(=O)(=O)c3ccc(C)cc3)CC2)cc1Br	-13	1	-10	9%	10
Cn1cc([N+](=O)[O-])c(C(=O)Nc2ccc(Br)cn2)n1	-45	-2	-41	0%	-2.8
COCC(C)NC(=O)COc1nncc2ccccc12 (configuration not stated)	.	-5	10	-3%	4.8
CC(C)(C)n1nnnc1C(c1cccs1)N1CCN(Cc2ccccc2)CC1 (configuration not stated)	13	9	8	-3%	0.7
CC1CCc2c(sc(Nc3nc4c(F)cccc4s3)c2C(N)=O)C1 (configuration not stated)	7	63	8	2%	-0.2
O=C(Nc1nnc(-c2ccc(Cl)cc2)o1)NC1CCCCC1	-14	82	4	?	-2.1
O=C(Nc1ccc(S(=O)(=O)N2CCCC2)cc1)C1CC(=O)N(c2ccc(F)cc2)C1 (configuration not stated)	.	5	.	.	-0.1
CCC(NC(=O)c1cc(COc2cc(C)c(Cl)c(C)c2)on1)c1ccncc1 (configuration not stated)	.	53	.	.	0.3
O=C(COC(=O)/C=C/c1cccs1)NC1CCCCC1	.	-20	.	.	2.0
CC(c1ccco1)N(C(=O)c1ccccc1NS(=O)(=O)c1ccc(Cl)c([N+](=O)[O-])c1)c1ccccn1 (configuration not stated)	-26	-2	19	-2%	25
C=C(C)CNC(=S)/N=c1\scc(C)n1CC	18	-4	20	-2%	0.8
CC1CN(S(=O)(=O)c2cccc(C(=O)NN3CCN(C)CC3)c2)CC(C)O1 (configuration not stated)	-5	-2	1	-9%	-0.4
O=Cc1nc(-c2ccccc2Cl)n2ccccc12	-9	7	4	1%	-0.4
COc1ccc(N2CCN(C(c3cc4ccc(C)cc4[nH]c3=O)c3nnnn3C3CCCC3)CC2)cc1 (configuration not stated)	20	25	-26	0%	.
COc1cc(OC)cc(C(=O)N2CCC(C(=O)c3ccc(F)cc3)CC2)c1	.	-2	.	.	1.2
CCc1cc(=O)oc2cc(OCC(=O)N3CCC(C(=O)O)CC3)ccc12	.	-11	.	.	-2.5
O=C(CCl)Nc1c(C(=O)Nc2ccc3c(c2)OCCO3)oc2ccccc12	.	94	.	.	31*
COc1cc(C(=O)NC(CCSC)C(=O)OCc2cc([N+](=O)[O-])cc3c2OCOC3)cc(OC)c1OC (configuration not stated)	.	-5	0	-8%	-0.1
COc1ccc2cc(Br)ccc2c1CC(=O)NC(C)C	.	-2	-1	8%	-5.7
CCn1cc(C(=O)NC2CCCCCC2)c(=O)c2cc(S(=O)(=O)N3CCCCC3)ccc21	.	-2	0	.	.	Arbovirus inh repeat=0

For reference, 3 of the compounds above.
SMILES	YopH inh	Mtb betalactam	Arbovirus inh	Mtb growth	RecA intein inh	others
COc1cc(C(=O)NC(CCSC)C(=O)OCc2cc([N+](=O)[O-])cc3c2OCOC3)cc(OC)c1OC (configuration not stated)	.	-5	0	-8%	-0.1
COc1ccc2cc(Br)ccc2c1CC(=O)NC(C)C	.	-2	-1	8%	-5.7
CCn1cc(C(=O)NC2CCCCCC2)c(=O)c2cc(S(=O)(=O)N3CCCCC3)ccc21	.	-2	0	.	.	Arbovirus inh repeat=0

More results.
SMILES	YopH inh	Mtb betalactam	Arbovirus inh	Mtb growth	RecA intein inh	others
O=C(Cc1cccs1)NCc1cccc(CNC(=O)Cc2cccs2)c1	.	-4	16	-12%	-0.2
O=C(CSc1nnc(-c2ccc(O)cc2)n1Cc1ccco1)c1cccs1	-58	12	1	2%	5.5
COc1ccc(N2CCN(C(CNC(=O)OCc3ccccc3)c3ccco3)CC2)cc1 (configuration not stated)	-17	10	-1	2%	2.4
C=CCSc1nnc2c(n1)OC(c1ccccn1)N(C(C)=O)c1ccccc1-2 (configuration not stated)	-3	0	2	6%	-3.3
Cc1ccccc1CSc1nc2[nH]ncc2c(=O)[nH]1	.	-3	-22	4%	-1.1
COc1ccc(N(CN2C(=O)C3CCCCC3C2=O)C(=O)c2ccco2)cc1 (configuration not stated)	.	0	.	-8%	0.8
CCn1c(SCC(=O)Nc2ccc3c(c2)OCCO3)nnc1-c1ccco1	-19	-4	4	-6%	1.1
Cc1ccc(SCCCn2cncn2)cc1	-31	-8	0	10%	-2.4
Cc1ccc(CSc2nc3c(cc2C#N)CCC3)cc1	-30	-4	-3	-12%	-2.6
C=CCNC(=O)COC(=O)COc1ccc(Cl)cc1C	-27	-1	-2	-2%	.
COC(=O)[C@H]1C[C@@H]1[C@H](NP(=O)(c1ccccc1)c1ccccc1)c1ccccc1	-23	-1	-7	-14%	-1.7
N#Cc1ccc(NC(=O)CCc2ccc(S(=O)(=O)N3CCOCC3)cc2)cc1	22	-23	4	3%	0.2
Cc1c(CN2CCc3c([nH]c4ccccc34)C2CC(C)C)cnn1C (configuration not stated)	.	-7	2	-2%	-4.6
CCOc1ccc(S(=O)(=O)Nc2ccccc2C(=O)N2CCOCC2)cc1	.	-2	.	.	-2.2
COc1cc(CNn2c(C)n[nH]c2=S)cc(Br)c1OCC(=O)NC(C)(C)C	.	6	.	.	-1.1
COc1ccc(CCNC(=O)c2ccc(=O)[nH]n2)cc1OC	-5	3	10	-1%	-4.7
CCOc1ccc(C(=O)c2cccs2)cc1	-32	-11	-14	12%	2.0
CCN(CC)C(=O)Cc1cn(C)c2ccccc12	.	-3	5	13%	4.1
Cc1ccccc1NC(=O)COC(=O)/C=C/c1cn(-c2ccccc2)nc1-c1cccnc1	-25	-1	2	3%	-1.5
OCCC1CN(Cc2ccn[nH]2)CCN1Cc1ccc(F)c(F)c1 (configuration not stated)	.	1	0	-1%	1.0
CC1CCCC(C)N1C(=O)COc1ccc(-c2nnco2)cc1 (configuration not stated)	-27	15	-10	4%	-0.8
Nc1ncnc(NNC(=O)CNC(=O)c2c(F)cccc2Cl)c1[N+](=O)[O-]	.	0	0	2%	-2.4
CCOc1ccccc1NC(=O)C1CCN(S(=O)(=O)c2cccc3cccnc23)CC1	-33	-1	-2	.	.	Arbovirus inh repeat=-2
COc1ccc(CN(CC2CCCO2)C(=O)CN2C(=O)C(C)Oc3ccc(C)cc32)cc1OC (configuration not stated)	-23	-6	-11	-3%	0.8
COc1cc(S(=O)(=O)N2CCN(C)CC2)c(OC)cc1Br	-30	2	1	-16%	-1.8
Cc1cnc(NC(=O)Cc2c[nH]c3ccccc23)s1	16	3	1	7%	.
Cc1noc(C)c1C(=O)Nc1sc2c(c1C(N)=O)CCC2	33	2	9	-4%	1.9
Cc1c(C(=O)OCCN2CCCCC2)oc2ccccc12	-40	?	-2	-7%	3.5
COc1ccc(S(=O)(=O)NC(N)=NCCc2ccccc2)cc1	.	-3	0	3%	3.7
CC(=O)NC(NC(C)=O)c1ccc(N(C)C)cc1	29	6	1	-3%	-1.8	Arbovirus inh repeat=4
CC1(C)C(=O)Nc2ccccc2N1C(=O)COC(=O)Cc1c(F)cccc1Cl	.	0	.	.	3.1
N/C(=N/OCc1cccc([N+](=O)[O-])c1)c1nonc1N	-29	3	5	10%	.
CCn1c(=O)c2cc(C(=O)N(C)c3ccc(OC)cc3OC)sc2c2ccccc21	.	-2	.	3%	12
CNC(=S)N1CCc2cc(OC)c(OC)cc2C1	.	-4	.	2%	.
CC(OC(=O)/C=C/c1cccc(F)c1)C(=O)NC1CCCCC1C (configuration not stated)	.	0	.	.	1.2
O=C(O)c1cc([N+](=O)[O-])ccc1NCCc1ccccc1	.	3	.	-10%	3.8
COc1ccc(OC)c(S(=O)(=O)NCc2ccccn2)c1	.	-5	.	.	0.9
Cc1csc2c(N3CCN(C(=O)Nc4ccccc4)CC3)ncnc12	.	-5	.	2%	2.1
CCC(C(=O)NC(CC(=O)O)c1ccc(Cl)cc1)c1ccccc1 (configuration not stated)	.	-4	.	.	-0.6
COC(=O)CNC(=O)C(Cc1c[nH]c2ccccc12)NC(=O)OC(C)(C)C (configuration not stated)	-28	27	-7	25%	-0.5

An excerpt from above in order of molar mass, rising.
SMILES	YopH inh	Mtb betalactam	Arbovirus inh	Mtb growth	RecA intein inh	others
N/C(=N/OCc1cccc([N+](=O)[O-])c1)c1nonc1N	-29	3	5	10%	.
O=C(O)c1cc([N+](=O)[O-])ccc1NCCc1ccccc1	.	3	.	-10%	3.8
COc1ccc(OC)c(S(=O)(=O)NCc2ccccn2)c1	.	-5	.	.	0.9
CCC(C(=O)NC(CC(=O)O)c1ccc(Cl)cc1)c1ccccc1 (configuration not stated)	.	-4	.	.	-0.6
Cc1csc2c(N3CCN(C(=O)Nc4ccccc4)CC3)ncnc12	.	-5	.	2%	2.1
COC(=O)CNC(=O)C(Cc1c[nH]c2ccccc12)NC(=O)OC(C)(C)C (configuration not stated)	-28	27	-7	25%	-0.5
CC1(C)C(=O)Nc2ccccc2N1C(=O)COC(=O)Cc1c(F)cccc1Cl	.	0	.	.	3.1

Next results
SMILES	YopH inh	Mtb betalactam	Arbovirus inh	Mtb growth	RecA intein inh	others
O=C(CN1CCN(c2ccc(F)cc2)CC1)NCc1cccs1	.	2	-1	-7%	-6.5
Cc1nn(-c2ccccc2)c(Cl)c1C1C(C#N)=C(N)Oc2n[nH]c(C)c21 (configuration not stated)	-22	36	4	4%	62*
O=C(NC(=S)Nc1ccc(S(=O)(=O)N2CCCC2)cc1)C1CCC1	-34	-2	-2	7%	1.0
COc1cc(C2Nc3cccc4cccc(c34)N2)cc(OC)c1O	10	10	0	15%	.
CCOC(=O)c1sc(N(Cc2ccccc2)C(=O)CSc2ncn[nH]2)nc1C	-12	1	-18	7%	5.8
CC(=O)c1ccc(NS(=O)(=O)Cc2ccc(Cl)cc2)cc1	-29	10	3	0%	-3.9
O=C1C2CCCN2C(c2ccc(F)cc2)N1c1nccs1 (configuration not stated)	-25	0	-5	-15%	-1.8
COc1ccc(C)cc1NC(=O)C(=O)NNC(=O)COc1ccc(Cl)cc1	.	98	19	?	-1.6
COc1cc(C2CC(=O)c3c([nH]c(C(=O)OCCOC(C)C)c3C)C2)cc(OC)c1OC (configuration not stated)	-10	-4	9	7%	-0.9	Arbovirus inh repeat=3
O=C(c1cc(-c2ccc(Br)cc2)n[nH]1)N1CCN(C(=O)c2ccccc2Br)CC1	.	5	.	.	0.8
CS(=O)(=O)c1ccc2nc(NC(=O)c3ccccc3)sc2c1	.	-3	.	.	1.0
O=C(C1CCCCC1)N1CCN=C1SCc1cccc([N+](=O)[O-])c1	.	1	-8	-3%	3.8
Cc1cc(NC(=O)c2cc(-c3ccc(C)s3)nc3ccccc23)no1	-3	-3	-6	11%	-0.5
O=C1Nc2ccccc2C1(O)Cc1ccncc1 (configuration not stated)	-21	-7	2	0%	2.9

Not all compounds are listed, so the mix of outcomes need not match the whole.
